Bioassay records as filed in PubChem.
VACV E9 pol inh: inhibitors of vaccinia virus processive DNA synthesis (E9 polymerase). in vitro processive DNA synthesis, absorbance read-out; active compounds read low; some inactives read as strong as hits. normalized absorbance, % (no concentration beside the values). hit rate 0.94% among 46,000;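 active = replicate mean up to 90% and picked by the depositor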;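 also: 100% = median of the test wells of a plate; 100 nL library stock went into each well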
Active calls of the source: *. These rows are one share of the data; rates above refer to the full screens.

What do the screens show for `O=C(CSc1nc2ccccc2o1)NC1CCCc2ccccc21` (stereo unspecified)?
VACV E9 pol inh: 103.0

How did CCOc1ccc(C(=O)/C(C)=N/O)cc1 do in these assays?
VACV E9 pol inh: 99.4

How did Cc1cc(=O)[nH]c(Nc2ccccc2)n1 do in these assays?
VACV E9 pol inh: 99.2

How did O=c1[nH]c(-c2ccccc2)nc2c1Cc1ccccc1O2 do in these assays?
VACV E9 pol inh: 107.3

What do the screens show for `Cc1ccc2nc(SCc3c(C)c(C)cc(C)c3C)[nH]c2c1`?
VACV E9 pol inh: 98.8

Results for Cc1ccc(S(=O)(=O)N=C2C=CC(=O)C=C2)cc1 ?
VACV E9 pol inh: 100.3

Results for OC(c1ccccc1)c1nccc2ccccc12 (stereo unspecified) ?
VACV E9 pol inh: 97.1

Results for Cc1ccc(OCC(=O)OC2CCCN(C)C2)cc1 (stereo unspecified) ?
VACV E9 pol inh: 106.3

What do the screens show for `COc1cccc(OCC(=O)NCc2ccccc2)c1`?
VACV E9 pol inh: 104.7

Results for COC(=O)CCSc1ncc(C(F)(F)F)cc1Cl ?
VACV E9 pol inh: 103.2

Results for COc1ccc2cc(Br)ccc2c1CC(=O)Nc1nccs1 ?
VACV E9 pol inh: 97.6

How did COc1ccc2c(c1)c(C(=O)O)c(C)n2-c1ccc(Cl)cc1 do in these assays?
VACV E9 pol inh: 95.1

Results for Cc1ccc(C(=O)N2CCN(c3ccccc3F)CC2)cc1S(=O)(=O)N1CCCC1 ?
VACV E9 pol inh: 120.4

Results for CC(C)C[C@@H](/C=C/S(C)(=O)=O)NC(=O)[C@H](CC(C)C)NC(=O)[C@H](CC(C)C)NC(=O)OCc1ccccc1 ?
VACV E9 pol inh: 99.0

What do the screens show for `Cc1cccc(-c2nc(C)c(CCNC(=O)c3c(F)cccc3F)s2)c1`?
VACV E9 pol inh: 103.5

Results for CC(Oc1ccc2ccccc2c1)C(=O)NN (stereo unspecified) ?
VACV E9 pol inh: 98.7

What do the screens show for `COc1ccc(OC)c(S(=O)(=O)NCCc2ccccc2)c1`?
VACV E9 pol inh: 94.6

Results for Cc1cc(C(=O)Nc2ccc(Cl)cc2)n(-c2ccccc2)n1 ?
VACV E9 pol inh: 94.9

How did O=C(Nc1cc2ccccc2s1)N1CCN(Cc2c(F)cccc2Cl)CC1 do in these assays?
VACV E9 pol inh: 91.3

How did CCOC(=O)c1ccc2c(c1)CC/C(=C\c1ccc(Cl)cc1Cl)C2=O do in these assays?
VACV E9 pol inh: 100.1

How did Fc1ccccc1-c1csc(-c2cccnc2)n1 do in these assays?
VACV E9 pol inh: 97.2

Results for O=C(Cc1cccs1)NCc1ccc(Cl)cc1 ?
VACV E9 pol inh: 93.1

Results for CCC1(C)CC(C(CCN)c2ccc(C)cc2)CCO1 (stereo unspecified) ?
VACV E9 pol inh: 105.3

What do the screens show for `Cn1nc(CC(=O)NN)c2ccccc2c1=O`?
VACV E9 pol inh: 100.7

Results for Clc1ccc(Nc2ccc(-c3ccccc3)nn2)cc1 ?
VACV E9 pol inh: 96.6

Results for CSC1=C(C#N)C(c2ccc3c(c2)OCO3)C2=C(CCCC2=O)N1 (stereo unspecified) ?
VACV E9 pol inh: 108.3

What do the screens show for `O=C(Nc1nc(-c2ccccc2)cs1)C1CCCO1` (stereo unspecified)?
VACV E9 pol inh: 101.4

What do the screens show for `CC(C)(C)c1nc2scc(-c3ccccc3)c2c(=O)o1`?
VACV E9 pol inh: 100.2

How did COc1ccc(C2=NS(=O)(=O)N(C)C(C(=O)N(C)Cc3ccccc3)=C2)cc1 do in these assays?
VACV E9 pol inh: 86.6

How did O=C(COc1ccc(Cl)cc1)NCCc1ccccc1 do in these assays?
VACV E9 pol inh: 100.3

Results for CCc1ccc(NC(=O)N2CC(CC)Sc3ccccc32)cc1 (stereo unspecified) ?
VACV E9 pol inh: 104.0

How did Cc1ccc(/C=C2\CC/C(=C\c3ccc(C)o3)C2=O)o1 do in these assays?
VACV E9 pol inh: 86.6

Results for COc1cc2c(cc1OC)CN(S(=O)(=O)c1ccc3c(c1)CCC(C)(C)O3)CC2 ?
VACV E9 pol inh: 100.9

What do the screens show for `CC1Cc2ccccc2N1C(=O)/C=C/c1cccc(Br)c1` (stereo unspecified)?
VACV E9 pol inh: 99.9

What do the screens show for `CCN1CCN(CC(O)COCCC23CC4CC(CC(C4)C2)C3)CC1` (stereo unspecified)?
VACV E9 pol inh: 90.5

What do the screens show for `Fc1cccc(CSc2nc3ccccc3c3nc4ccccc4n23)c1`?
VACV E9 pol inh: 100.6

What do the screens show for `CN(Cc1ccccc1)C(=O)CNC(=O)Cn1ccc2ccccc2c1=O`?
VACV E9 pol inh: 103.1

What do the screens show for `CN(C)CC(O)Cn1c2ccccc2c2ccccc21` (stereo unspecified)?
VACV E9 pol inh: 81.4

Results for CC1(C)CC(=O)C(=CN2CCOCC2)C(=O)C1 ?
VACV E9 pol inh: 100.2

What do the screens show for `Cc1ccc(C(=O)NCC(=O)NC2CCCCC2)cc1`?
VACV E9 pol inh: 97.1

Results for CCCCCCCCCCCCCCC(F)C(=O)O (stereo unspecified) ?
VACV E9 pol inh: 100.8

What do the screens show for `COc1ccc(OC)c(CNc2ccc3c(c2)nc(C)n3C)c1`?
VACV E9 pol inh: 100.5

How did CNc1ccccc1C(C)(C)c1cc(-c2ccccc2)no1 do in these assays?
VACV E9 pol inh: 88.9

How did Cc1ccc(-c2nc3ccccc3[nH]2)cc1 do in these assays?
VACV E9 pol inh: 124.5

How did Cc1ccc(NC(=O)CSc2nccn2-c2ccc(Cl)cc2)cc1 do in these assays?
VACV E9 pol inh: 100.2

What do the screens show for `O=C(c1cccs1)N1CCN(c2ncccn2)CC1`?
VACV E9 pol inh: 97.2

How did O=C(CN1C(=O)/C(=C\c2cccs2)SC1=S)Nc1ccccc1 do in these assays?
VACV E9 pol inh: 98.0

How did CC1C(=O)C(C)C(c2ccccc2)NC1c1ccccc1 (stereo unspecified) do in these assays?
VACV E9 pol inh: 101.6

How did O=C(/C=C/c1cccc(Cl)c1)Nc1ccc(N2CCOCC2)cc1 do in these assays?
VACV E9 pol inh: 99.4

What do the screens show for `FC(F)(F)c1cc(-c2ccc3ccccc3c2)nn1C(=S)N1CCCCCC1`?
VACV E9 pol inh: 100.5

What do the screens show for `CCOC(=O)c1sc(NN)nc1C`?
VACV E9 pol inh: 100.3

What do the screens show for `COc1ccc(/C=C/C(=O)Nc2ccc3nc4n(c(=O)c3c2)CCCC4)cc1`?
VACV E9 pol inh: 102.0

How did CN1CCCN(C(=O)COc2ccc(C#N)cc2)CC1 do in these assays?
VACV E9 pol inh: 103.9

What do the screens show for `O=C(c1ccc(CS(=O)(=O)Cc2ccc(Cl)cc2)o1)N1CCCC1`?
VACV E9 pol inh: 96.8

What do the screens show for `CCOC(=O)c1sc2nc[nH]c(=O)c2c1C`?
VACV E9 pol inh: 100.2

How did Cc1cc2ncn(C(=O)c3ccccc3C(=O)O)c2cc1C do in these assays?
VACV E9 pol inh: 101.7

What do the screens show for `COc1cc2c(c(OC)c1)C(c1ccccc1OC)CC(=O)N2` (stereo unspecified)?
VACV E9 pol inh: 104.8

Results for O=c1oc2ccccc2cc1-c1nn(-c2ccccc2)cc1C=NCc1ccccc1 ?
VACV E9 pol inh: 99.9

How did CCSc1nnc(CNC(=O)c2ccccc2)n1-c1ccccc1 do in these assays?
VACV E9 pol inh: 101.3

How did CCC(C)Sc1n[nH]c(=S)s1 (stereo unspecified) do in these assays?
VACV E9 pol inh: 99.6

What do the screens show for `CC(C)c1cc(C(C)C)c(S(=O)(=O)N2CC3C4C=CC(C4)C3C2)c(C(C)C)c1` (stereo unspecified)?
VACV E9 pol inh: 100.3

What do the screens show for `CN1CCN(CC2COc3ccccc3O2)CC1` (stereo unspecified)?
VACV E9 pol inh: 103.9

What do the screens show for `CC(NCc1ccccc1)C1COc2ccccc2O1` (stereo unspecified)?
VACV E9 pol inh: 99.9

What do the screens show for `CN(C)C(CNS(=O)(=O)c1ccc(F)cc1)c1cccnc1` (stereo unspecified)?
VACV E9 pol inh: 96.3

Results for O=C(/C=C/c1ccccc1)Nc1ccc(C(=O)O)cc1 ?
VACV E9 pol inh: 95.4

Results for CCOc1ccc(/C=c2/sc3nnc(-c4ccccc4C)n3c2=O)cc1 ?
VACV E9 pol inh: 100.1

What do the screens show for `CCOC(=O)C1=C(N)OC(c2cccc(OC)c2)=C(C#N)C1c1ccccc1` (stereo unspecified)?
VACV E9 pol inh: 80.6

What do the screens show for `CCOC(=O)c1c(NC(=O)c2ccccc2F)sc(C(=O)N2CCCCC2)c1C`?
VACV E9 pol inh: 94.9

Results for O=c1[nH]c(=S)[nH]c(O)c1CN1CCOCC1 ?
VACV E9 pol inh: 100.4

Results for Cc1nc2cc(Cl)ccc2c(=O)n1-c1ncn[nH]1 ?
VACV E9 pol inh: 100.6

Results for Brc1ccc(NC2=Nc3ccccc3CC2)cc1 ?
VACV E9 pol inh: 83.7

How did CC1=CC(C)C(C(=O)O)C(C(=O)Nc2ccccc2)C1 (stereo unspecified) do in these assays?
VACV E9 pol inh: 99.7

Results for Cc1cc(NCc2cccnc2)c2ccc(Cl)cc2n1 ?
VACV E9 pol inh: 102.8

What do the screens show for `CC(C)NC(=S)N1CCCN2C(=O)c3ccccc3C21` (stereo unspecified)?
VACV E9 pol inh: 104.8

Results for O=C(O)CNC(=O)c1cn(-c2ccccc2)nc1-c1ccc(Cl)s1 ?
VACV E9 pol inh: 88.4

What do the screens show for `Nc1cc(=O)[nH]c(=O)n1CC12CC3CC(CC(C3)C1)C2`?
VACV E9 pol inh: 100.6

What do the screens show for `COc1cccc(/C=C/C(=O)O)c1`?
VACV E9 pol inh: 100.2

How did NCC(O)COCC1COc2ccccc2O1 (stereo unspecified) do in these assays?
VACV E9 pol inh: 95.1

How did CC1Cc2ccccc2N1C(=O)CSC1=NCCS1 (stereo unspecified) do in these assays?
VACV E9 pol inh: 103.4

How did O=S(=O)(NCCC1=CCCCC1)c1ccc(-n2cccn2)cc1 do in these assays?
VACV E9 pol inh: 88.8

How did COc1ccccc1NC(=O)c1cc(=O)c2ccccc2o1 do in these assays?
VACV E9 pol inh: 99.6

How did CCCc1c(C)nn(-c2ncccc2N)c1C do in these assays?
VACV E9 pol inh: 101.1

How did Cn1c(=O)c2c(O)c(C=Nc3ccc(Cl)cc3)c(=O)n(C)c2n(C)c1=O do in these assays?
VACV E9 pol inh: 106.3

Results for CC(=O)NC(c1ccccc1)c1ccc2cccnc2c1O (stereo unspecified) ?
VACV E9 pol inh: 99.7

What do the screens show for `O=C(/C=C/c1ccco1)OCC(=O)C12CC3CC(CC(C3)C1)C2`?
VACV E9 pol inh: 100.5

How did N#CCC(=O)Nc1ccncc1 do in these assays?
VACV E9 pol inh: 102.3

What do the screens show for `Cc1[nH]c2ccccc2c1C(c1ccncc1)N1CCN(C)CC1` (stereo unspecified)?
VACV E9 pol inh: 110.1

Results for CN(C)c1ccc(/C=C2/S/C(=N/O)NC2=O)cc1 ?
VACV E9 pol inh: 99.7

How did c1ccn2c(Cc3nnc4ccccn34)nnc2c1 do in these assays?
VACV E9 pol inh: 102.8

What do the screens show for `N#C/C(N=Cc1cccs1)=C(\C#N)NCc1c(F)cccc1Cl`?
VACV E9 pol inh: 103.1

Results for Cc1ccc(-n2c(=O)cc(N3CCc4ccccc43)[nH]c2=O)cc1 ?
VACV E9 pol inh: 98.0

What do the screens show for `CCOc1cc2oc(=O)cc(-c3ccccc3)c2cc1Cl`?
VACV E9 pol inh: 99.6

What do the screens show for `Fc1cccc(CNCc2cn[nH]c2-c2ccc(Br)cc2)c1`?
VACV E9 pol inh: 108.3

Results for COC(=O)c1ccc(/C(O)=C(\C#N)c2nc3ccccc3s2)cc1 ?
VACV E9 pol inh: 98.9

What do the screens show for `COC(=O)c1cn(NC(=O)C(c2ccccc2)C2CCCC2)c(=O)c2ccccc12` (stereo unspecified)?
VACV E9 pol inh: 101.9

Results for COc1ccc2c(c1)C(=O)N(C)C(=O)C2 ?
VACV E9 pol inh: 99.5

How did O=C(CC1(O)C(=O)Nc2ccccc21)c1cccc(-n2cnnn2)c1 (stereo unspecified) do in these assays?
VACV E9 pol inh: 94.2

Results for Cn1c2ccccc2c2c(C(=O)N3CCCCC3)cn(C3CCCC3)c(=O)c21 ?
VACV E9 pol inh: 94.4

Results for Cc1cc(C)c(S(=O)(=O)Cc2ccccc2)c(=O)[nH]1 ?
VACV E9 pol inh: 100.7

Results for Cc1ccc(-c2nnc(SCC(=O)NC3CCCCC3)o2)cc1 ?
VACV E9 pol inh: 87.5

Results for CCc1c(C(C)O)oc2ccc3c(C)cc(=O)oc3c12 (stereo unspecified) ?
VACV E9 pol inh: 91.4

How did Cc1ccc(OCCn2cc(C(=O)c3ccccc3)c3ccccc32)cc1 do in these assays?
VACV E9 pol inh: 98.4

Results for CN(C)CCNc1cc(-c2ccncc2)nc2ccccc12 ?
VACV E9 pol inh: 62.7

Among those listed so far, 12 have fluorine:
Results for COC(=O)CCSc1ncc(C(F)(F)F)cc1Cl ?
VACV E9 pol inh: 103.2

Results for Cc1ccc(C(=O)N2CCN(c3ccccc3F)CC2)cc1S(=O)(=O)N1CCCC1 ?
VACV E9 pol inh: 120.4

What do the screens show for `Cc1cccc(-c2nc(C)c(CCNC(=O)c3c(F)cccc3F)s2)c1`?
VACV E9 pol inh: 103.5

How did O=C(Nc1cc2ccccc2s1)N1CCN(Cc2c(F)cccc2Cl)CC1 do in these assays?
VACV E9 pol inh: 91.3

How did Fc1ccccc1-c1csc(-c2cccnc2)n1 do in these assays?
VACV E9 pol inh: 97.2

What do the screens show for `Fc1cccc(CSc2nc3ccccc3c3nc4ccccc4n23)c1`?
VACV E9 pol inh: 100.6

Results for CCCCCCCCCCCCCCC(F)C(=O)O (stereo unspecified) ?
VACV E9 pol inh: 100.8

What do the screens show for `FC(F)(F)c1cc(-c2ccc3ccccc3c2)nn1C(=S)N1CCCCCC1`?
VACV E9 pol inh: 100.5

What do the screens show for `CN(C)C(CNS(=O)(=O)c1ccc(F)cc1)c1cccnc1` (stereo unspecified)?
VACV E9 pol inh: 96.3

What do the screens show for `CCOC(=O)c1c(NC(=O)c2ccccc2F)sc(C(=O)N2CCCCC2)c1C`?
VACV E9 pol inh: 94.9

What do the screens show for `N#C/C(N=Cc1cccs1)=C(\C#N)NCc1c(F)cccc1Cl`?
VACV E9 pol inh: 103.1

What do the screens show for `Fc1cccc(CNCc2cn[nH]c2-c2ccc(Br)cc2)c1`?
VACV E9 pol inh: 108.3
